Screening data from PubChem.
D2 agonist = human D2 receptor agonism in beta-arrestin assay; P14416; DiscoveRx PathHunter D2 beta-arrestin, luminescence, 90 min; 100% = 57 uM dopamine signal; activation, % (test concentration not listed); 360,000 tested, 0.084% active; AID 624465; in the data active = activation above about 40%; inconclusive = about 15% to 40%; inactive = below about 15%; further: compound concentration not given in the record; the text of the record calls up to 30% inactive
Target sequence (P14416 whole entry, looked up): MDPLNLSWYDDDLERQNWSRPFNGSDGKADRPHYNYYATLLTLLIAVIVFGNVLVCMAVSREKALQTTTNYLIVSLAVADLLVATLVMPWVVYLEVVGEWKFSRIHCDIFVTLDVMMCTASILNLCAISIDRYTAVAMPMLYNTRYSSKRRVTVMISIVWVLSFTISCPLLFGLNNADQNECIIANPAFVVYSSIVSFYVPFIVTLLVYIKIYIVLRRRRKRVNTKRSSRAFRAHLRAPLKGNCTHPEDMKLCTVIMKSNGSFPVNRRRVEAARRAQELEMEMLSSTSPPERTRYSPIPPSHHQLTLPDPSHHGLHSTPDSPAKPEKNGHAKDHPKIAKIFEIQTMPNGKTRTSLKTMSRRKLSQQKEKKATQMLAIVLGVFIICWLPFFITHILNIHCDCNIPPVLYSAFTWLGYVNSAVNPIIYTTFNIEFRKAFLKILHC
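Agonist mode: compounds alone added to overnight-plated D2 PathHunter cells for 90 min at 37 C, with 57 uM final dopamine (EC100) defining full response. Beta-arrestin recruitment detected by chemiluminescent reagent, read after 1 h at ambient temperature.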
gsp ag = activates gsp, the McCune-Albright syndrome mutation | gsp mutant cells, cAMP HTRF, 30 min; control for the full effect not named in the record | Potency, µM (top dose mostly 76.9 µM), for inactives: top-dose activation (cAMP increase), hits mostly activators | 340,000 tested, 0.13% active; active = well fitted activation curve with a large enough effect; inconclusive = small, poorly fitted or top-dose-only effect, or another doubt; inactive = no such curve, though single readings can be large or run the other way; cell line not stated here;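 further: phosphodiesterase inhibitor Ro 20-1724 added with compounds to block cAMP breakdown; potency means the concentration at half of the fitted maximal effect; nearly all actives have a fitted effect of over 60% in size; about a fifth of the inactives were tested at one dose only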
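Cells in DMEM/10% FBS with G418 were pretreated with compounds in DMSO plus […] (300 uM stock) for 30 min at 37C. cAMP was measured by HTRF (cAMP-d2 plus anti-cAMP antibody-K) after 30 min at room temperature.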
Menin MLL FP FL = inhibitors of human menin-MLL interaction, wild-type MLL peptide; 290,000 tested, under 10 active; Fluorescence polarization, fluorescein-MLL peptide displacement from menin; FP activity change, % at 61.4 µM; inconclusive = falling polarisation curve, or a change in total fluorescence; inactive = total fluorescence flat and polarisation flat or rising; no compound was filed as active; the % refers to the polarisation; negative = inhibition;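 further: % of control where 0% means no effect; inhibitors lower the polarisation; unlabelled MLL peptide was the positive control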
Sfp inh = blocks B. subtilis Sfp PPTase activity | Q9F4F7 | Biochemical Sfp PPTase activity, qHTS | Potency, µM, inactives show max response, negative = inhibition, hits mostly inhibitors | 310,000 tested, 3.5% active; active means well fitted inhibition curve with a large enough effect; inconclusive means small, poorly fitted or top-dose-only effect, or another doubt; inactive means no such curve, though single readings can be large or run the other way;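 further: the enzyme is Sfp with the accession as filed and its product quenches rhodamine fluorescence; potency means the concentration at half of the fitted maximal effect; 0% = enzyme reaction without inhibitor and -100% = no enzyme wells; top concentration of the series not given in the record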
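Fluorescence-quenching assay with 15 nM Sfp, 5 uM rhodamine-CoA and 12.5 uM BHQ-2-labelled ybbR peptide in pH 7.6 Hepes/MgCl2 buffer. Enzyme was pre-incubated with compound for 15 min at room temperature. Rate was taken from the 30-min fluorescence change (525/598 nm).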
PINK1 modulator = modulators of PINK1 expression | 410,000 tested, 0.2% active | AID 624263 | Potency, µM (doses to about 76.6 µM), for inactives: at the top dose activation (PINK1 increase), most hits filed as activators | PINK1 immunofluorescence, high-content cytometry, 24 h; active = well fitted activation curve with a large enough effect; inconclusive = small, poorly fitted or top-dose-only effect; inactive = flat fitted curve, though single readings scatter; cell line not stated here;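 further: potency means the concentration at half of the fitted maximal effect; % of control where 0% means no effect; nearly all actives have a fitted effect of over 65% in size; a mitochondrial uncoupler was the plate control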
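PINK1 protein level read as immunofluorescence by microplate cytometer in a fixed, stained stable cell line after 24 h exposure to five compound concentrations, with CCCP as control.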
ClpP mod = qHTS Assay for Activators of ClpP; purified B. subtilis ClpP, FRET peptide cleavage, 20 min; Potency, µM (top dose mostly 57.5 µM), for the others: top-dose activity change, negative = active; 340,000 tested, 1.9% active; AID 651965, 2013; active = well fitted falling curve with a large enough effect; inconclusive = small, poorly fitted or top-dose-only effect; inactive = no such curve, though single readings can be large or run the other way; further: potency means the concentration at half of the fitted maximal effect; the source files actives as falling curves though it sought activators and does not explain the sign; nearly all actives have a fitted effect of over 65% in size; many hits overshoot -100%
Target sequence (P80244 whole entry, looked up): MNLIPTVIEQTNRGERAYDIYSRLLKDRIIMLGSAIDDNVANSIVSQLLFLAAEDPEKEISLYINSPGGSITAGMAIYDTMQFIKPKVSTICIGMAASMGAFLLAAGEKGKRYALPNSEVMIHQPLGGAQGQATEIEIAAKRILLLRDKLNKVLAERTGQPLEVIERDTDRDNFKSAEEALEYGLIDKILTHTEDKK
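Buffer: 100 mM Tris/HCl pH8, 100 mM KCl, 0.05% low protease BSA, 2.5% glycerol, 0.01% Tween-20. ClpP 10 microg/mL final; 20 min RT; delta FRET normalized to ADEP and DMSO controls.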
gsp antag = antagonists of gsp mutant (McCune-Albright syndrome); 340,000 tested, 0.4% active; Potency, µM (highest dose often 76.9 µM), for inactives: at the highest dose activity change, negative = inhibition, actives largely listed as inhibitors; gsp-mutant cells, cAMP HTRF, 30 min; control for the full effect not named in the record; active = falling curve of any shape with a large fitted effect; inconclusive = falling curve, mostly with a smaller effect; inactive = flat or rising curve; cell line not stated here;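 further: intracellular cAMP measured with PDE inhibitor Ro 20-1724 present during compound exposure; potency means the concentration at half of the fitted maximal effect; on the % scale 0 is the no-effect control and ±100 the full control effect; nearly all actives have a fitted effect of over 65% in size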
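HTRF cAMP read-out (cAMP-d2 plus anti-cAMP antibody-K in lysis buffer, 30 min RT). Before lysis, cells are exposed to compounds with […] for 30 min at 37C in DPBS containing Ca/Mg, BSA and Tween 20.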
* = called active by the depositor; ? = inconclusive; nt = not tested or not shown; & = joins results of further samples; [ ] = remark or other dose.

SMILES	D2 agonist	gsp ag	Menin MLL FP FL	Sfp inh	PINK1 modulator	ClpP mod	gsp antag
O=C(CSc1ncnc2c1cnn2CCO)Nc1cccc(C(F)(F)F)c1	1.6	3%	-0.8	20%	5.1%	2.1%	8%
CC1CCC(NC(=O)C2CC(=O)N(c3ccc4c(c3)OCCO4)C2)CC1 (configuration not stated)	8.6	16%[15.4 µM]	-0.8	-2%	1.2%	nt	-5%
CCCN1CCN(C(=O)CCCNC(=O)c2ccc(Cl)cc2)CC1	-2.3	?	4.4	9%	-0.8%	nt	0%
Cc1cc(C(=O)C(C)OC(=O)C2=NNC(=O)CC2)c(C)n1-c1ccc(OC(F)F)cc1 (configuration not stated)	-2.8	-22%	0.9	9%	0.3%	20µM*	6%
O=C(Nc1ccc(F)cc1)Nc1ccc(Oc2ncnc3cc(Cl)ccc23)nc1	3.2	7%[15.4 µM]	0.3	5%	-0.6%	-0.3%	11%
CC[C@@]12C(=O)N(c3ccc(OC)cc3)C(=O)N1[C@H](c1ccc(Cl)cc1)[C@@H]1C(=O)N(C3CCCCC3)C(=O)[C@@H]12	-2.5	nt	-0.2	17%	0.8%	-1.9%	-4%
O=C(c1cc2c(s1)CCC2)N1CCN(c2ccccc2)CC1	-3.1	-56%[inhibitor]	2.3	-22%	5.4%	-3.0%	-2%
CCCCC1=CC2=CC(=O)C(C)(OC(=O)CC)C(=O)C2=CN1C1CCCC1 (configuration not stated)	1.6	nt	1.3[11.7 µM]	25%&11%	-0.5%	-2.6%	-2%
O=C(NCc1cccs1)C1CC(=O)N(c2ccccc2)C1 (configuration not stated)	-2.7	-5%	0.3	14%	-2.1%	0.2%	8%
O=C(CN1CCCCC1)Nc1ccc(F)c(Cl)c1	-2.7	17%	11	11%	0.3%	0.5%	14%
O=C(CSc1cccc[n+]1[O-])N1CCCc2ccccc21	-1.6	-7%[15.4 µM]	-0.9	13%	-1.3%	nt	17%
CCCCNC(=O)C1(C)CCN1C(=O)Cc1cccc2ccccc12 (configuration not stated)	-5.9	nt	nt	nt	5.6%	1.0%	nt
COc1ccccc1NC(=O)c1cccc(S(=O)(=O)N2CCOCC2)c1	-4.1	20%	5.0	8%	-0.2%	?	-11%
COc1ccc(CNC(=O)CN(c2cccc(OC)c2)S(C)(=O)=O)cc1	-0.3	-37%[inhibitor]	-0.3	11%	nt	0.8%	-7%
CC(=O)Nc1ccc(S(=O)(=O)Nc2cccc(-c3nc4cc(C)ccc4o3)c2)cc1	-1.9	-8%	nt	nt	3.2%	-0.2%	?
Cc1cn(CC(=O)NCCCc2ccccc2)c(=O)[nH]c1=O	-4.5	nt	nt	nt	0.6%	-4.6%	-8%
CC1CC(C)CN(CCCNC(=O)CN2C(=O)c3cccnc3Oc3ccc(Cl)cc32)C1 (configuration not stated)	-5.9	?	nt	14%	1.3%	1.9%	-2%
COC(=O)c1ccccc1NC(=O)c1ccc(F)cc1	-0.1	-7%[15.4 µM]	2.7&-12	12%&-4%	5.9%	nt	-4%
Cc1ccc(CNC(=O)C(=O)NCC2OCCCN2S(=O)(=O)c2ccc(F)cc2)cc1 (configuration not stated)	3.2	?	nt	17%	3.6%	0.9%	3%
COc1ccc(-c2nc(C#N)c(NCCN(C)C)o2)cc1	-1.0	-3%	nt	nt	-0.7%	5.0%	5%

Reprinted from above (eight entries):
SMILES	D2 agonist	gsp ag	Menin MLL FP FL	Sfp inh	PINK1 modulator	ClpP mod	gsp antag
COc1ccccc1NC(=O)c1cccc(S(=O)(=O)N2CCOCC2)c1	-4.1	20%	5.0	8%	-0.2%	?	-11%
COc1ccc(CNC(=O)CN(c2cccc(OC)c2)S(C)(=O)=O)cc1	-0.3	-37%[inhibitor]	-0.3	11%	nt	0.8%	-7%
CC(=O)Nc1ccc(S(=O)(=O)Nc2cccc(-c3nc4cc(C)ccc4o3)c2)cc1	-1.9	-8%	nt	nt	3.2%	-0.2%	?
Cc1cn(CC(=O)NCCCc2ccccc2)c(=O)[nH]c1=O	-4.5	nt	nt	nt	0.6%	-4.6%	-8%
CC1CC(C)CN(CCCNC(=O)CN2C(=O)c3cccnc3Oc3ccc(Cl)cc32)C1 (configuration not stated)	-5.9	?	nt	14%	1.3%	1.9%	-2%
COC(=O)c1ccccc1NC(=O)c1ccc(F)cc1	-0.1	-7%[15.4 µM]	2.7&-12	12%&-4%	5.9%	nt	-4%
Cc1ccc(CNC(=O)C(=O)NCC2OCCCN2S(=O)(=O)c2ccc(F)cc2)cc1 (configuration not stated)	3.2	?	nt	17%	3.6%	0.9%	3%
COc1ccc(-c2nc(C#N)c(NCCN(C)C)o2)cc1	-1.0	-3%	nt	nt	-0.7%	5.0%	5%

(next part)
SMILES	D2 agonist	gsp ag	Menin MLL FP FL	Sfp inh	PINK1 modulator	ClpP mod	gsp antag
CSc1ccccc1OCc1cc(C(=O)NCCCn2nc(C)cc2C)no1	-2.2	13%	5.7	2%	1.4%	-2.4%	-14%
COc1cc(OC)c(OC)cc1/C=N/NC(=O)c1cccc(S(=O)(=O)N2CCOCC2)c1	1.3	9%	33[activator]	6%	-0.3%	nt	-2%
O=S(=O)(Nc1nc2ccccc2nc1NCc1ccco1)c1ccc(F)cc1	-1.5	0%	1.6	22%	1.8%	4.1%	-9%
CCOC(=O)C1C(=O)C=C(c2ccc(C)cc2)CC1c1ccccc1 (configuration not stated)	-2.0	-1%[15.4 µM]	2.3	-9%	1.0%	1.3%	-41%
Cc1cc(C(=O)COC(=O)c2ccc(NC(=O)CC#N)cc2)c(C)n1-c1ccc(OC(F)F)cc1	1.2	1%	nt	nt	1.1%	nt	-9%
CC(=O)c1ccc(NC(=O)CSc2nnc(Cn3cnc4ccccc43)o2)cc1	-1.3	-2%[15.4 µM]	1.0	11%	-1.4%	0.4%	11%
COc1ccc(S(=O)(=O)CCC(=O)Nc2ccc(OC)cc2OC)cc1	-1.8	-4%	1.1	1%	-3.8%[38.3 µM]	-2.1%	9%
O[C@H]1CN(CC2CCCCC2)[C@@H](c2ccc(Cl)cc2)C[C@@H]1n1cc(-c2ccc(F)cc2)nn1	-7.1	-10%	nt	nt	?	-1.5%	nt
CCOc1ccc(C(=O)N(CC)CC(=O)Nc2ccc3c(c2)OCCO3)cc1	-1.3	17%	nt	nt	0.9%	1.4%	-2%
COCC(=O)Nc1ccc(OC)c(Cl)c1	-3.0	-32%[inhibitor]	-1.6	6%	0.3%	-1.0%	17%
COc1ccc(C)cc1NC(=O)c1cc2c(s1)CCC2	-2.0	6%	0.6	1%	1.1%	-8.6%	?
O=C(COC(=O)Cc1ccc2c(c1)OCCO2)Nc1ccc(S(=O)(=O)N2CCCC2)cc1	-0.3	-7%	0.5	6%	0.9%	-6.1%	-18%
OC(CNC1CCCC1)COc1ccc(-c2ccccc2)cc1 (configuration not stated)	-4.8	-2%[15.4 µM]	-2.8	-4%	5.0%	-1.0%	7%
CCN(C(=O)c1cccc(S(=O)(=O)N2CCc3ccccc32)c1)C1CCS(=O)(=O)C1 (configuration not stated)	-0.9	5%	nt	nt	-1.5%	-3.5%	-4%
CSc1ncccc1C(=O)OCC(=O)c1cccs1	4.2	-1%	-2.6	14%	-0.4%	nt	-10%
CCn1cnc2c1c(=O)n(Cc1cccc(Br)c1)c(=O)n2Cc1ccccc1	1.7	-6%[15.4 µM]	15	-6%	3.8%	2.2%	-1%
O=[N+]([O-])c1c(Nc2ccccc2O)cc(Cl)c2nonc12	-3.4	-18%	1.3	-64%	-2.0%	nt	-21%
COc1ccc(CN2CCN(Cc3c[nH]c4ccccc34)CC2)c(OC)c1	-2.9	-23%	nt	nt	-0.8%	-5.8%	nt
Cc1cc(C)c(S(=O)(=O)c2cccc(Cl)c2)c(=O)[nH]1	1.0	?	-10	4%	-0.5%	nt	8%
CCC1(CC)NC(=O)N(CC(=O)NCc2ccc3c(c2)OCO3)C1=O	-3.6	10%	4.0	21%	-1.8%	1.8%	17%
CCN(CC(=O)Nc1c(F)cccc1F)C(=O)CCNS(=O)(=O)c1ccccc1C(F)(F)F	-3.4	4%	nt	nt	-1.6%	-2.0%	9%
COCCNc1oc(COc2cccc(C)c2)nc1C#N	-3.9	-23%	3.9	16%	-1.5%	-0.6%	-21%
CCOC(=O)c1c(C)[nH]c(C)c1C(=O)COC(=O)[C@@H]1CCCN1S(=O)(=O)c1ccc(Cl)cc1	0.1	19%	-0.1	9%	-1.7%[38.3 µM]	-0.6%	?
Cc1cc(Cl)ccc1NC(=S)N(CCCN1CCOCC1)Cc1cccs1	-5.2	-19%[15.4 µM]	1.1	45µM*	-1.1%	-1.9%	-15%
COC(=O)c1c(S(C)(=O)=O)nc(-c2ccccc2)[nH]c1=O	-1.1	3%	6.7	14%	1.0%	0.1%	12%
CC(=O)Oc1cccc(N2C(=O)C3C4C=CC(CC4)C3C2=O)c1 (configuration not stated)	2.2	?	5.0	15%	2.4%	nt	11%
CN1CCc2c(c3ccccc3n2Cc2ccccc2)C1	-2.5&-11	?	2.1	16%&9%&16%	0.9%&1.4%	-9.8%&-10%	7%&1%
CC(=O)c1c(Cl)nc2cccc3c2c1-c1ccccc1C3=O	2.5	-59%[inhibitor]	2.7	-7%	3.3%	nt	-11%
COc1ccc(C(=O)NC2CCCc3c2cnn3-c2ccccc2F)o1 (configuration not stated)	0.0	-28%	nt	7%	0.7%	-0.3%	-5%
